# D2 PAM – positive allosteric modulators of human D2 dopamine receptor. P14416. DiscoveRx D2 beta-arrestin cells, luminescence, 90 min; 100% = 57 uM dopamine signal. potentiation, % (test concentration not listed). actives 0.23% (n = 360,000). AID 624464; active = potentiation of 50% or more; inconclusive = 30% to 50%; inactive = 30% or less;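 note: compound concentration not given in the record; tested on top of an EC20 dose of dopamine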
# Target sequence (P14416 whole entry, looked up): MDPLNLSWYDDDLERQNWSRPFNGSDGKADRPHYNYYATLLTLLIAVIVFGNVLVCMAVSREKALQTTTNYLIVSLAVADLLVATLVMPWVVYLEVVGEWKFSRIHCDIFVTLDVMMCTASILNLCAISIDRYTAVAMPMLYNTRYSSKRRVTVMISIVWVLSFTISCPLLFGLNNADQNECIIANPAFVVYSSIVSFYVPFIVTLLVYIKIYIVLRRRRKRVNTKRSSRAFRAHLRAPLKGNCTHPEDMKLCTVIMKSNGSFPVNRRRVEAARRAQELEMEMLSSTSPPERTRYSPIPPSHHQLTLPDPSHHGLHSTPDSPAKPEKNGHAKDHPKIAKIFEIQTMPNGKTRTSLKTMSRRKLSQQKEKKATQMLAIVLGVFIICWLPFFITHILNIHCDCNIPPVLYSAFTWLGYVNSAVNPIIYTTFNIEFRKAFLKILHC
#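 PathHunter D2 cells, attached overnight at 37 deg C, received compound in DMSO plus dopamine at EC20 (50 nM final) for 90 min at 37 deg C. Beta-arrestin recruitment was read as luminescence after 1 h with detection reagent at ambient temperature.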
# gsp agonist – agonists of gsp mutant (McCune-Albright syndrome) | Potency, µM (series often up to 76.9 µM), for inactives: at the top dose activation (cAMP increase), actives largely listed as activators | AID 624287 | gsp mutant cells, cAMP HTRF, 30 min; control for the full effect not named in the record | actives 0.13% (n = 340,000); active = well fitted activation curve with a large enough effect; inconclusive = small, poorly fitted or top-dose-only effect, or another doubt; inactive = no such curve, though single readings can be large or run the other way; cell line not stated here;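 note: phosphodiesterase inhibitor Ro 20-1724 added with compounds to block cAMP breakdown; potency is the fitted concentration of half-maximal effect; nearly all actives have a fitted effect of over 60% in size; about a fifth of the inactives were tested at one dose only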
#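 Cells stably selected in G418 were plated at 2000/well, grown 16-24 hr, then given compounds in DMSO with the PDE inhibitor […] (300 uM solution added) for 30 min at 37C; cAMP was read by HTRF.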
# gsp antag – gsp mutant antagonism; actives 0.4% (n = 340,000); AID 624288; Potency, µM (titrated, usually from 76.9 µM), for the others: top-dose activity change, negative = inhibition, actives largely listed as inhibitors; gsp-mutant cells, cAMP HTRF, 30 min; control for the full effect not named in the record; active = falling curve of any shape with a large fitted effect; inconclusive = falling curve, mostly with a smaller effect; inactive = flat or rising curve; cell line not stated here;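 note: intracellular cAMP measured with PDE inhibitor Ro 20-1724 present during compound exposure; potency is the fitted concentration of half-maximal effect; % is set by controls: 0 for no effect and ±100 for the full control effect; nearly all actives have a fitted effect of over 65% in size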
#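 Cells, 2000/well, grown 16–24 h in DMEM 10% FBS with 0.5 mg/ml G418, then compounds plus […] (300 uM addition stock), 30 min at 37C. cAMP read by HTRF (cAMP-d2 and anti-cAMP antibody-K in lysis buffer) after 30 min RT.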
# D2 agonist – agonists of human D2 dopamine receptor (beta-arrestin) | P14416 | DiscoveRx PathHunter D2 beta-arrestin, luminescence, 90 min; 100% = 57 uM dopamine signal | activation, % (no concentration beside the values) | actives 0.084% (n = 360,000); in the data active = activation above about 40%; inconclusive = about 15% to 40%; inactive = below about 15%; note: compound concentration not given in the record; the text of the record calls up to 30% inactive
#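 Agonist mode: compounds alone added to overnight-plated D2 PathHunter cells for 90 min at 37 C, with 57 uM final dopamine (EC100) defining full response. Beta-arrestin recruitment detected by chemiluminescent reagent, read after 1 h at ambient temperature.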
# CtBP-E1A blk – blocks the CtBP interaction with E1A; actives 0.49% (n = 340,000); AID 651724; activity change, % (concentration not given with the values); AlphaScreen GST-E1A/His-CtBP binding, 1536-well; stronger effect = lower value; control for the full effect not named in the record; in the data active means activity change below about -65%; inconclusive means about -30% to -65%; inactive means above about -30%; note: % is set by controls: 0 for no effect and ±100 for the full control effect
#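 Protein mix (5X: 125 nM each GST-E1A, His-CtBP) was incubated with pinned compound 2 h at 37 deg C in dark, in 50 mM Tris pH 8.0 buffer with 300 mM NaCl. Glutathione donor and nickel acceptor beads followed; AlphaScreen signal read after 1 h.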
# Six1-Eya2 blk – Six1/Eya2 interaction inhibition. Q15475+O00167. AlphaScreen GST-Six1/His-Eya2 binding, biochemical; stronger effect = lower value; control for the full effect not named in the record. activity change, % (no concentration beside the values). actives 0.56% (n = 360,000). AID 651725; in the data active = activity change below about -65%; inconclusive = about -30% to -65%; inactive = above about -30%; note: % is set by controls: 0 for no effect and ±100 for the full control effect; compound concentration not given in the record
#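 GST-Six1 + His-Eya2 (5X stock: 250/500 nM); Tris pH 8.0, 300 mM NaCl, 0.05% BSA, 0.02% Tween 20; GSH donor/Ni acceptor beads; 1 h 37 °C dark; AlphaScreen readout.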
# Numbers without * were called inactive; ? = inconclusive; / = no result given; [ ] = another dose, or the depositor's remark.
SMILES,D2 PAM,gsp agonist,gsp antag,D2 agonist,CtBP-E1A blk,Six1-Eya2 blk
CC(=O)OC1CCC2(C)C(CCC3C2CC(=O)C2(C)C3CC(C(C(C)=O)C(C)=O)C2C(C)=O)C1 (stereo not drawn),-5,2%,-15%,0.5,8,3
COCc1cc(=O)[nH]c2c1c(-c1ccccc1)nn2C,-20,?,7%,-3.9,/,-2
CCSc1nnc(NC(=O)Cn2cnc3c2c(=O)n(C)c(=O)n3C)s1,3,42%[15.4 µM],-31%,0.1,-9,5
C=C(C)C(=O)Nc1cccc(C2=NOC3(C2)C[C@@H](C(N)=O)N(C(=O)/C=C/C=C/C)C3)c1 (stereo partly drawn),-6,/,-7%,-0.6,2,-24
O=C1Cc2cc(S(=O)(=O)Nc3ccccc3Cl)cc3c2N1CCC3,1,?,2%,1.4,-3,0
Cc1nc(CNS(=O)(=O)c2ccc(F)cc2)cs1,-4,15%[15.4 µM],3%,-2.1,0,8
Cc1ccc2cc(CCNS(=O)(=O)c3ccc(Cl)cc3)c(=O)[nH]c2c1C,-4,26%,-10%,5.8,-8,-2
COc1ccccc1C(O)(C(=O)NN(C)c1ccccc1)c1ccccc1OC,0,-31%[inhibitor],-15%,-4.2,-1,2
CC(C)(C)S(=O)N1Cc2cc(=O)n(Cc3ccccc3)cc2[C@H]1CCO (stereo partly drawn),/,/,13%,0.7,0,0
CCN(CC)S(=O)(=O)c1ccc2oc(Nc3ccccc3)nc2c1,-1,20%,-12%,4.6,-13,-14
O=C(CCN1CCOCC1)NNC(=O)c1ccc([N+](=O)[O-])cc1[N+](=O)[O-],59*,6%,6%,6.1,2,0
CC(c1nc2ccccc2c(=O)[nH]1)N1CCN(S(=O)(=O)c2ccc(F)c(Cl)c2)CC1 (stereo not drawn),-3,-43%[inhibitor],/,2.7,1,-4
O=c1c2cc(Cl)ccc2[nH]c(=S)n1Cc1cccs1,-7,1%[15.4 µM],-14%,-7.3,-23,1
Cc1cc(OCc2cc(C(=O)NCCN3CCCCC3CO)no2)cc(C)c1Cl (stereo not drawn),-14,-34%[inhibitor],9%,1.3,-10,-4
Cc1cc(C)c(C#N)c(Oc2ccccc2)n1,-9,?,0%,-3.4,10,4
CCC(C)NC(=O)CNC(=O)c1nn(-c2ccc(OC)cc2)c(=O)c2ccccc12 (stereo not drawn),0,29%,0%,-3.9,6,2
C=CCOC(=O)c1[nH]c2c(c1C)C(=O)CC(c1cc(OC)c(OC)c(OC)c1)C2 (stereo not drawn),5,?,-21%,13,-3,-8
O=C(NCCCc1ccccc1)c1ccc(Br)o1,-2,10%,4%,-5.1,10,15
O=[N+]([O-])c1ccc(Cl)c(NC2=NCCCCC2)c1,3,3%[15.4 µM],9%,-4.5,0,-3
O=C(O)c1cc(-c2ccc(/C=C3\NC(=O)N(c4ccccc4)C3=O)o2)ccc1Cl,-7,-11%,?,-3.3,3,-16
CC(NC(=O)CNC(=O)C1CCCCC1)c1ccc(S(N)(=O)=O)cc1 (stereo not drawn),-4,-1%,7%,6.5,1,13
CC(C)(C)OC(=O)N1CCC[C@H]1C(=O)O,-4,/,5%,-1.6,-13,3
COCCNc1oc(-c2ccc(C)cc2)nc1C#N,-3,-3%,8%,-2.9,-17,1
COc1cc2c(cc1OC)N1C(=O)CC(OCC(=O)O)C3C4CC5(CCN5C(=O)C4=O)C2C31 (stereo not drawn),0,16%[15.4 µM],7%,-3.1,12,-2
CC(C)N(C(=O)CSc1ccc(S(=O)(=O)N2CCCCC2)cn1)C(C)C,-5,-4%,-4%,-2.6,6,0

# Compound profiles, as listed above. Order of values: D2 PAM, gsp agonist, gsp antag, D2 agonist, CtBP-E1A blk, Six1-Eya2 blk
# `O=C(O)c1cc(-c2ccc(/C=C3\NC(=O)N(c4ccccc4)C3=O)o2)ccc1Cl` is listed with -7, -11%, ?, -3.3, 3, -16
# `O=C1Cc2cc(S(=O)(=O)Nc3ccccc3Cl)cc3c2N1CCC3` is listed with 1, ?, 2%, 1.4, -3, 0

# The list continues.
SMILES,D2 PAM,gsp agonist,gsp antag,D2 agonist,CtBP-E1A blk,Six1-Eya2 blk
COc1cc(N2Cc3ccccc3C2)ccc1C=O,-3,-2%,-21%,5.6,-17,-3
O=C(Nc1c(C(=O)N2CCOCC2)cnn1-c1ccccc1)c1ccccc1,-6,15%,8%,-3.1,2,3
O=C(OCc1nc2ccccc2s1)c1cccc(S(=O)(=O)N2CCOCC2)c1,-4,-14%,-1%,0.5,-1,2
NC(=O)c1ccc(SCC(=O)OCC(=O)NCc2cccs2)c([N+](=O)[O-])c1,0,5%,0%,-0.5,0,0
CCCCOc1ccc(C(=O)NCC(=O)N(C)Cc2nc3ccccc3c(=O)[nH]2)cc1,-2,18%,9%,0.4,-3,-1
CC(C)CNS(=O)(=O)c1ccc(OCC(=O)Nc2ccc3c(c2)OCO3)c(Cl)c1,9,-79%[inhibitor],-5%,1.9,-6,-4
CCn1c(CNc2cccc(C(F)(F)F)c2)n[nH]c1=S,-5,-4%,2%,3.7,6,1
COc1ccc(CSc2ncnc3sccc23)cc1F,-19,9%[15.4 µM],1%,-4.3,27,21
Oc1c(C=C2N=c3ccccc3=N2)sc(=S)n1C1CCCC1,11,17%,14%,4.7,0,-2
O=C(CN1C(=O)CCC1=O)NNc1ccc2ccccc2c1,-14,-3%,-3%,2.0,/,5
CN(C)C(=O)CCc1ccc2c3c([nH]c2c1)[C@]1(C)[C@@H](C(=O)N2CCCCC2)C[C@H](CC(=O)NCCCn2ccnc2)C(=O)N1CC3,/,/,-7%,-0.2,-1,-3
CC(C)c1nc2ccccc2c2nnc(SCC(=O)NCc3ccco3)n12,-8,23%,-10%,3.7,-5,-5
CN1CCN(S(=O)(=O)c2cc(Cl)c(Cl)cc2Cl)CC1,0,-7%[15.4 µM],11%,-1.5,8,16
CSc1ccccc1C(=O)NCc1cccnc1,-7,7%,5%,-3.2,0,6
CCOC(=O)CN1C(=O)N[C@@H](c2cccc(F)c2)C(C(=O)OC)=C1C,-5,/,-9%,1.2,0,0
CC(Sc1nn(-c2ccc(Cl)cc2)c(=S)s1)C(=O)NCC1CCCO1 (stereo not drawn),-1,-23%,-7%,-3.0,-3,-1
Cc1cc(NC(=O)CSc2nnc(-c3ccco3)n2N)no1,18,?,8%,-3.6,-5,3
Cc1ccc(C(=O)N/C(=C\c2cccc([N+](=O)[O-])c2)C(=O)NCc2ccncc2)cc1,-13,1%[15.4 µM],3%,2.9,4,-5
Cc1ccccc1S(=O)(=O)N(C)C[C@H]1OCc2cn(nn2)CCCC(=O)N([C@@H](C)CO)C[C@@H]1C,-5,/,/,-4.1,-22,14
CCCc1ccc(Oc2cc(N3CCOCC3)nc(-c3ccccc3)n2)cc1,-6,-34%[inhibitor],-8%,-3.3,1,3
CN(CC(=O)Nc1c(Cl)cccc1Cl)C(=O)c1ccc2nc[nH]c2c1,-18,0%[15.4 µM],15%,-3.7,-2,-8
CCOC(=O)CON1C(=O)C(=O)N(OCC(=O)OCC)C2CCCCC21 (stereo not drawn),-7,4%,-2%,-4.0,6,1
CCOC(=O)N1CCN(S(=O)(=O)c2ccc(C(=O)Nc3nnc(C)o3)cc2)CC1,-7,-10%[15.4 µM],-3%,-6.6,-7,?
O=S(=O)(NCCc1csc(-c2ccccc2)n1)c1cccnc1,-2,14%,17%,-1.9,-1,1
CN(CC(=O)Nc1ccccc1Br)C(=O)C1CCN(C(=O)c2ccc(Cl)cc2)CC1,-5,-9%[15.4 µM],2%,-2.8,18,0
# Other entries:
SMILES,D2 PAM,gsp agonist,gsp antag,D2 agonist,CtBP-E1A blk,Six1-Eya2 blk
Cc1ccc(NC(=O)CSc2nnc(CNC(=O)c3ccccc3F)o2)cc1Cl,-20,13%,5%,5.2,-15,9
O=C(CCn1c(=O)c2ccccc2n(Cc2cccc([N+](=O)[O-])c2)c1=O)N1CCc2ccccc2C1,-2,-7%[15.4 µM],4%,-1.7,1,18
Cc1cccc(N/N=C/c2ccccc2O)c1,-6,-3%[15.4 µM],11%,-6.5,-8,-12
O=C1/C(=C\c2cccnc2)SC(=S)N1c1ccc(F)cc1,-3,3%,8%,-9.6,0,5
NC[C@H](Cc1ccccc1)NCCCCC1CCCCC1,-9,/,6%,-1.6,1,-1
Cc1cc(NC(=O)Nc2ccc(Cl)cc2)n(C(C)(C)C)n1,-10,2%,-3%,2.1,0,-6
COc1ccc(-n2c(O)c(C=NCC(c3ccco3)N3CCCC3)c3ccccc3c2=O)cc1OC (stereo not drawn),-2,?,-9%,-3.1,-13,-13
CC(C)c1ccc(NC(=O)COc2ccc(C3SCCS3)cc2)cc1,-4,-6%[15.4 µM],-5%,-4.4,0,-4
COc1cc2c(cc1OC)C1=C(C#N)CCC(=NC(=O)c3ccco3)N1CC2,-5,10%[15.4 µM],7%,-1.1,3,1
CCCNc1nc(C)cc(-c2cc(-c3ccc(Cl)cc3)on2)n1,-6,-9%,3%,2.8,9,2
COc1ccc(C(=O)OCC(=O)Nc2ccc(N3CCOCC3)cc2)cc1,0,-125%[inhibitor],5%,6.1,-21,0
CCOC(=O)C1Oc2ccccc2C(c2ccc(C)cc2)=C1C(=O)OC (stereo not drawn),/,/,-16%,-3.3,4,2
O=C(NCCSc1ccccn1)c1ccc(Cl)cc1Cl,5,-21%[15.4 µM],4%,-1.6,8,2
O=C(CCCN1C(=O)c2ccccc2C1=O)Nc1nnc(C2CC2)s1,1,27%,-1%,0.4,0,4
O=C(NNc1ncccc1-n1cccc1)c1ccc(Cl)cc1,-3,0%[15.4 µM],-14%,11,-3,-19

# Six of the entries above in order of the CtBP-E1A blk value, high to low:
SMILES | D2 PAM | gsp agonist | gsp antag | D2 agonist | CtBP-E1A blk | Six1-Eya2 blk
CCCNc1nc(C)cc(-c2cc(-c3ccc(Cl)cc3)on2)n1 | -6 | -9% | 3% | 2.8 | 9 | 2
COc1cc2c(cc1OC)C1=C(C#N)CCC(=NC(=O)c3ccco3)N1CC2 | -5 | 10%[15.4 µM] | 7% | -1.1 | 3 | 1
NC[C@H](Cc1ccccc1)NCCCCC1CCCCC1 | -9 | / | 6% | -1.6 | 1 | -1
O=C1/C(=C\c2cccnc2)SC(=S)N1c1ccc(F)cc1 | -3 | 3% | 8% | -9.6 | 0 | 5
Cc1cccc(N/N=C/c2ccccc2O)c1 | -6 | -3%[15.4 µM] | 11% | -6.5 | -8 | -12
COc1ccc(-n2c(O)c(C=NCC(c3ccco3)N3CCCC3)c3ccccc3c2=O)cc1OC (stereo not drawn) | -2 | ? | -9% | -3.1 | -13 | -13

# Source: PubChem (National Center for Advancing Translational Sciences (NCATS))

# Rows are unselected; 1.4% or so of the library scored in one or more.
